LASV entry inh: Lassa virus entry inhibition; Lassa virus pseudotype entry inhibition, cell reporter; control for the full effect not named in the record; AID 540256; Potency, µM (series often up to 37.9 µM), without a hit: at the top dose activity change, negative = inhibition, usual class: inhibitors; 1.2% of 300,000 active; active means well fitted inhibition curve with a large enough effect; inconclusive means small, poorly fitted or top-dose-only effect, or effect the other way; inactive means flat fitted curve, though single readings scatter; tested in HEK293 cells; note: % is set by controls: 0 for no effect and ±100 for the full control effect; nearly all actives have a fitted effect of over 50% in size; luciferase read-out
NS1 function inh: influenza NS1 inhibition. 0.4% of 270,000 active. Potency, µM (series often up to 46.1 µM), inactives show at the highest dose activity, positive = more growth. AID 2326. S. cerevisiae slowed by influenza A NS1, growth recovery by OD600; active means well fitted rising curve with a large enough effect; inconclusive means small, poorly fitted or top-dose-only effect; inactive means no such curve, though single readings can be large or run the other way; note: nearly all actives have a fitted effect of over 50% in size
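Growth recovery, yeast-based: influenza A NS1 expressed in S. cerevisiae causes slow growth, and suppressors are detected by OD600. The parent strain without NS1 is used as positive control.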
SARS PLP yeast: inhibitors of SARS-CoV papain-like protease in yeast; S. cerevisiae expressing SARS-CoV PLpro, growth rescue; control for the full effect not named in the record; Potency, µM (series often up to 32.9 µM), inactives show at the highest dose activity, positive = growth rescue; AID 485353; 0.19% of 330,000 active; active means well fitted rising curve with a large enough effect; inconclusive means small, poorly fitted or top-dose-only effect; inactive means no such curve, though single readings can be large or run the other way; note: 0% is about no effect; nearly all actives have a fitted effect of over 55% in size; growth read by luminescence after 48 h
RE007 growth inh: less growth of the S. pombe RE007 Vpr strain; S. pombe RE007 Vpr strain, BacTiter-Glo ATP luminescence, 24 h; control for the full effect not named in the record; Potency, µM (doses to about 92.2 µM), inactives show at the top dose activity change, negative = less growth; 0.21% of 360,000 active; AID 651644; active = well fitted falling curve with a large enough effect; inconclusive = small, poorly fitted or top-dose-only effect; inactive = no such curve, though single readings can be large or run the other way;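 note: % is set by controls: 0 for no effect and ±100 for the full control effect; nearly all actives have a fitted effect of over 50% in size; the assay follows cell death caused by Vpr and the record does not say whether a fall means rescue or toxicity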
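Fission yeast RE007 carrying one integrated HIV-1 vpr copy, seeded at OD 0.01 in PMG+AL medium with 23 nL pinned compound. Grown 24 h at 30 degrees; viability read by BacTiter-Glo luminescence after 5 min.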
Cruzain inh Det: cruzain (T. cruzi) inhibition with detergent; 0.43% of 200,000 active; purified cruzain, Z-FR-AMC fluorescence, 0.01% Triton; Potency, µM, for inactives: max response, negative = inhibition, usual class: inhibitors; AID 1478; P25779;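 note: plate controls were neutral wells for no effect and buffer without enzyme for full effect; nearly all actives have a fitted effect of over 40% in size; top concentration of the series not given in the record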
Target sequence (P25779 123-467 limits assumed): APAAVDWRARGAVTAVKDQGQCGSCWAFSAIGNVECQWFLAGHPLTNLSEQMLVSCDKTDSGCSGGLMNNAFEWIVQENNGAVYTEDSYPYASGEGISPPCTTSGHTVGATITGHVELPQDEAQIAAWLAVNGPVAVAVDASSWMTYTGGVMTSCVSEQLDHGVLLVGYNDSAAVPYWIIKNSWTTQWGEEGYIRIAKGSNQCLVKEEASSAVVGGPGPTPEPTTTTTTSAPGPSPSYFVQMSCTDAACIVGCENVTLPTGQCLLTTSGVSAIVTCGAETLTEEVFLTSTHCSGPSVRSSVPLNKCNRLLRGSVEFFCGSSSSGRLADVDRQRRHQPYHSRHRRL
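Compounds were screened in titration against cruzain (1.5 nM) with 0.01% Triton X-100 to counter colloidal aggregation. Activity was the AMC fluorescence increase over 60 s after adding 2 uM Z-FR-AMC at pH 5.5.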
Cruzain noTriton: blocks cruzain activity in detergent-free assay; Potency, µM, inactives show max response, negative = inhibition, most hits filed as inhibitors; AID 1476; 2.3% of 200,000 active; P25779; purified cruzain, Z-FR-AMC fluorescence, no detergent;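 note: plate controls were enzyme without inhibitor for no effect and buffer without enzyme for full effect; nearly all actives have a fitted effect of over 40% in size; top concentration of the series not given in the record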
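Detergent-free condition (0.00005% Triton X-100) in acetate buffer pH 5.5 with DTT. 1.5 nM enzyme and compound were pre-mixed 15 min, then 2 uM Z-FR-AMC substrate added; reaction progress from fluorescence change between first and third reads (60 s).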
MARV entry inh: inhibitors of Marburg virus binding or cell entry; Marburg virus pseudotyped entry inhibition, cell reporter; control for the full effect not named in the record; about a third of the inactives were read at about 46 µM; Potency, µM (highest dose often 37.8 µM), for the others: top-dose activity change, negative = inhibition, most hits filed as inhibitors; 1.8% of 300,000 active; AID 540276; active = well fitted inhibition curve with a large enough effect; inconclusive = small, poorly fitted or top-dose-only effect, or effect the other way; inactive = flat fitted curve, though single readings scatter; tested in HEK293 cells; about a fifth of its hits are not listed in these tables; note: % is set by controls: 0 for no effect and ±100 for the full control effect; luciferase read-out
2A StopGo: FMDV 2A StopGo reporter, luciferase signal; human cells with a luciferase reporter of 2A StopGo recoding; control for the full effect not named in the record; Potency, µM (top dose mostly 57.9 µM), for inactives: top-dose signal change, negative = less light; 1.2% of 410,000 active; AID 1159524; active = well fitted falling curve with a large enough effect; inconclusive = small, poorly fitted or top-dose-only effect; inactive = no such curve, though single readings can be large or run the other way; tested in HEK293T cells; note: % is set by controls: 0 for no effect and ±100 for the full control effect; nearly all actives have a fitted effect of over 45% in size; luciferase light after 4 h
Active calls of the source: *; ? = inconclusive; · = no result given; & = joins results of further samples; [ ] = another dose, or the depositor's remark. Unless noted, calls come from the whole dose curve; as a rule, active = well fitted curve in the direction sought with a large enough effect; inconclusive = small, poorly fitted or top-dose-only effect, or another doubt; inactive = no such curve, though single readings can be large; an effect the other way counts as inactive or inconclusive. Potency is the fitted concentration of half-maximal effect.

SMILES	LASV entry inh	NS1 function inh	SARS PLP yeast	RE007 growth inh	Cruzain inh Det	Cruzain noTriton	MARV entry inh	2A StopGo
O=C(Nc1ccccc1-c1nc2ccccc2s1)c1ccc(Br)o1	-21%	5%	-10%	-3%	6.6%	-8%	?	-8%
O=c1c2ccccc2c(=O)n(-c2ccccc2)n1-c1ccccc1	-14%	·	·	12%	·	·	3%	-20%
COc1ccccc1/C=C\C(=O)NCC(=O)N/N=C/c1cccc(OC)c1O	?	10%	5%	9%	·	·	?	-5%
O=C(Cc1cnc2ncnn2c1)N1CCc2c([nH]c3ccccc23)C1c1ccccc1F (stereo unspecified)	?	4%	-1%	14%	·	·	-33%[46.1 µM]	-23%
Cn1nc(C(=O)Nc2ccccc2N2CCCC2)c2ccccc2c1=O	·	-25%	-1%	-22%	·	·	·	?
O=C(Nc1nnc(S(=O)(=O)N2CCCCC2)s1)c1cccc(Br)c1	·	4%	-6%	10%	·	·	·	-24%
Cc1ccc(CN2C(=O)C(O)(c3c(C)[nH]c4ccccc34)c3ccccc32)cc1 (stereo unspecified)	?	·	·	·	-13%	3%	1%[46.1 µM]	-6%
S=C1NCCc2ccc(Cl)cc2C1c1ccccc1 (stereo unspecified)	?	22%	-59%	-3%	?	?	-3%[46.1 µM]	27%
CCc1ccc(N=C2NC(=O)CC(C(=O)Nc3ccc(OC)cc3)S2)cc1 (stereo unspecified)	-28%[46.1 µM]	·	·	·	-3.8%	?	10%[46.1 µM]	-11%
Cc1coc2c(C)c3oc(=O)c(CCC(=O)NCCCN4CCCC4=O)c(C)c3cc12	·	-3%	15%	-28%	·	·	·	-18%
CC(Nc1nc(-c2ccccc2O)nc2ccccc12)c1ccccc1 (stereo unspecified)	-8%	2%	-2%	4%	·	·	-6%[46.1 µM]	-3%
COc1ccc(C2(CNC(=O)C(=O)Nc3cccc(C(F)(F)F)c3)CCCC2)cc1OC	-20%[46.1 µM]	·	·	·	-1.4%	17%	-21%[46.1 µM]	?
CCN(CC)C(=O)CSC1=C(C#N)C(c2cccs2)C=C(C)N1 (stereo unspecified)	?	1%	2%	3%	-9.0%	5%	7.9µM*	1%
O=C(COc1ccccc1)NCCn1ccc2ccccc21	34%	-6%	22%	10%	-4.1%	8%	2%	·
Cc1ccc(C(=O)Nc2cccc(N3C(=O)C4CCC(C)CC4C3=O)c2)cc1 (stereo unspecified)	-22%	9%	14%	-14%	·	·	19%	-26%
O=C(N/N=C\c1ccc(S(=O)(=O)O)o1)c1ccc2c(c1)OCO2	·	-4%	2%	4%	·	·	·	-15%
COc1ccc(CCNC(=O)C2CCN(Cc3nc(-c4ccccc4F)oc3C)CC2)cc1OC	-1%	2%	7%	-8%	-1.3%	2%	?	-9%
O=C(NC1CCCCC1)c1ccc(S(=O)(=O)c2ccccc2Cl)c([N+](=O)[O-])c1	?	-10%	20%	·	-4.4%	2%	?	·
O=C(NCc1cccs1)C1CCN(S(=O)(=O)N2CCCC2)CC1	11%	2%	0%	13%	7.9%	0%	?	·
COc1ccc(C2C(Oc3ccccc3)C(=O)N2c2cc(C)ccc2C)cc1OC (stereo unspecified)	?	22%	4%	7%	0.3%	-24%	?	14%
CCN1CCN(CC(O)COC(c2ccccc2)c2ccccc2C)CC1 (stereo unspecified)	·	2%	0%	-2%	·	·	·	-10%
Cc1cc(Cl)ccc1OCCCC(=O)N1CCOCC1	6%	-63%	-4%	0%	1.7%	-6%	?	20%
CC(=O)Nc1ccc(/C=N/NS(=O)(=O)c2cc(C)ccc2C)cc1	0%	-2%	3%	15%	·	·	11%	75%[activator]
CSc1cccc(NC(=S)N(CCCN2CCCC(C)C2)Cc2cccs2)c1 (stereo unspecified)	?	·	1%	-5%	·	·	?	12%
COc1ccc(N(CC(=O)NCc2cccnc2)S(=O)(=O)c2ccccc2[N+](=O)[O-])c(OC)c1	9%	-1%	0%	-13%	·	·	3%[14.2 µM]	-25%
Cc1ccc(S(=O)(=O)CCC(=O)OCC(=O)c2cc(C)ccc2C)cc1	10%	·	-3%	4%	·	·	11%	-25%
CNNC(=S)Nc1cccc(SC)c1	·	-4%	-1%	-8%	·	·	8%	0%
COc1ccccc1CCC(=O)Nc1cccc(S(=O)(=O)N2CCCC2)c1	2%	-1%	0%	10%	·	·	-15%	-3%
CC(=O)c1ccc(N(CC(=O)Nc2cc(C)on2)S(=O)(=O)c2ccc(C)cc2)cc1	?	·	·	-16%	·	·	10%	16%
COc1cccc(C2C(C(C)=O)=C(O)C(=O)N2Cc2ccco2)c1 (stereo unspecified)	-17%	-2%	1%	32%	-1.3%	-9%	5%	-1%
CCN1CCN(C(=O)Cn2ncc3c4ccccc4n(Cc4c(C)cc(C)cc4C)c3c2=O)CC1	-25%[46.1 µM]	·	·	·	-7.8%	16%	?	0%
CCOC(=O)NC(=O)CSc1nnnn1-c1ccccc1	15%	-6%	2%	-7%	8.7%	-5%	0%	·
C=CCNC(=O)c1snnc1-c1ccccc1	-11%	?	-5%	15%	6.0%	15%	22%	-18%
c1ccc(-c2cnc(CSc3nnc4ccccn34)o2)cc1	-11%	10%	0%	-10%	0.2%	-2%	?	0%
CS(=O)(=O)Nc1ccccc1C(=O)OCc1cc(=O)n2nc(C3CCCCC3)sc2n1	1%[46.1 µM]	·	·	·	-5.3%	-2%	·	-15%
Cc1c(C(=O)Nc2ccc(Cl)cn2)oc2ccccc12	21%	0%	0%	9%	1.8%	?	?	38%[activator]
CC1(C)N=C(SCC(=O)Nc2ccc(Cl)cc2Cl)C(c2ccccc2)=N1	-13%	-7%	-8%	-2%	-3.1%	4%	-19%	?
CCn1cc(CNC(=O)CCc2nnc(CCC3CCCCC3)o2)cn1	·	-2%	0%	-13%	·	·	·	8%
COc1ccc(Cl)cc1C(=O)NC1=NCCS1	7%	6%	2%	-20%	·	·	?	56%[activator]
Cc1nn(-c2ccc(N3CCOCC3)nn2)c(C)c1CCC(=O)NCc1ccccc1	-2%&-25%[46.1 µM]	3%	11%	12%	-2.8%	-7%	12%[46.1 µM]	7%&-8%
CN(C)C(=S)c1ccc(N(C)C)cc1	·	9%	1%	-19%	·	·	·	4%
O=C(Nc1ccc2ccccc2c1)Nc1ccc2snnc2c1	13µM*	-5%	-15%	2%	-8.8%	-5%	?	?
Cc1ccc(C)c(N(C(=O)c2csnn2)C(C(=O)NC2CCCCC2)c2cccnc2)c1 (stereo unspecified)	-11%[46.1 µM]	-4%	14%	7%	·	·	-2%[46.1 µM]	20%
CC(C)OCCCNC(=O)CCCn1c(=O)[nH]c2ccsc2c1=O	5%[46.1 µM]	·	·	·	0.7%	-7%	19%[46.1 µM]	-1%
COc1ccc(CNC(=O)C2CCC(CNc3c(N4CCC(C)CC4)c(=O)c3=O)CC2)cc1 (stereo unspecified)	·	-6%	-5%	-5%	·	·	·	-1%
O=C(NC1CCCC1)c1cccc(S(=O)(=O)N2CCCCC2)c1	4%	-9%	3%	50%	-1.2%	-3%	?	0%
Cc1ccc(S(=O)(=O)NC2c3cccc4cccc(c34)C2Sc2ncccn2)cc1 (stereo unspecified)	?	?	5%	27%	-3.5%	?	?	-18%
Nn1c(SCc2ccccn2)nncc1=O	9%	5%	0%	0%	·	·	?	-15%
Cc1[nH]c(SCC(=O)c2c(N)n(C)c(=O)n(C)c2=O)nc1Cc1ccccc1	1%	·	1%	-17%	·	·	?	-8%
NC(=O)C1CCN(C(=O)Cc2ccc([N+](=O)[O-])cc2)CC1	2%	2%	-5%	-8%	-3.2%	-2%	15%	-16%
Going on with the list.
SMILES	LASV entry inh	NS1 function inh	SARS PLP yeast	RE007 growth inh	Cruzain inh Det	Cruzain noTriton	MARV entry inh	2A StopGo
O=C(CCc1nc(-c2ccccc2Cl)no1)NCc1ccco1	33%[46.1 µM]	8%	-1%	2%	·	·	?	4%
O=C(c1cn2ccccc2n1)N1CCCC(Nc2ccc(F)c(F)c2)C1 (stereo unspecified)	-13%	-2%	18%	-3%	·	·	8%	-4%
COC1CCCN(C(=O)c2cccc(OC3CCN(S(C)(=O)=O)CC3)c2)C1 (stereo unspecified)	·	3%	6%	-2%	·	·	·	-15%
Cc1cc(NC(=O)n2ncc3c(C)cccc32)ccc1Br	3%[46.1 µM]	·	·	·	-0.7%	5%	17%[46.1 µM]	57%[activator]
Cc1cc(C)c2nc(-c3ccccn3)cc(C(=O)N3CCCC3)c2c1	18%[46.1 µM]	?	-10%	14%	·	·	12%[46.1 µM]	11%
Cc1cc(C(=O)N/N=C/c2cccc3ccccc23)c(C)o1	-1%[46.1 µM]	-12%	-2%	4%	·	·	7.9µM*	39%[activator]
Cc1cc(C)c(NC(=S)N(CCN2CCCCC2)Cc2ccco2)c(C)c1	-13%	·	-4%	-15%	·	·	?	10%
O=S1(=O)CC2(N3CCOCC3)CCCCCCC21 (stereo unspecified)	1%	-3%	10%	0%	3.1%	-6%	13%	10%
N#Cc1c(-c2ccc(Cl)cc2)ccnc1N1CCOCC1	-12%[46.1 µM]	·	-9%	11%	·	·	?	-8%
Cc1cc(C)nc(SCC(=O)Nc2cccc(S(=O)(=O)N(C)C)c2)n1	-5%	2%	-2%	-14%	·	·	-14%[46.1 µM]	?
Cc1snc(SCc2ccc(F)cc2)c1C#N	-7%	-9%	-5%	0%	·	·	0%[46.1 µM]	1%
O=C(CSc1ncnc2c1oc1ccccc12)Nc1ccccc1F	·	0%	-7%	5%	-0.7%	?	·	-12%
CCOc1ccc(CNC(=O)C2CCCN(S(=O)(=O)N(C)c3ccc(F)cc3)C2)cc1OC (stereo unspecified)	·	·	·	·	3.3%	?	-20%[46.1 µM]	?
CCCCN(C)S(=O)(=O)c1cc(-c2nnc3c4ccccc4c(C)nn23)ccc1C	15%[46.1 µM]	·	·	·	0.4%	2%	·	-27%
COc1ccccc1NC(=O)c1sc(-c2ccc(Cl)cc2)cc1N	28%[46.1 µM]	·	·	·	?	?	9%[46.1 µM]	3%
COc1ccc(C2C(C(=O)c3ccccc3)=C(C)Nc3nc4ccccc4n32)cc1OC (stereo unspecified)	13%	9%	4%	-3%	-4.0%	?	?	4%

Screens (PubChem BioAssay)
